Assay outcomes deposited in PubChem BioAssay by several laboratories.
HNF4A DNA FP: change in binding of human HNF4 alpha to DNA; P41235; HNF4a-FITC DNA binding, fluorescence polarization, 1 h; activity change, % at 10 µM; 0.3% of 360,000 active; in the data active = activity change above about 30%, passing the limit was not always enough;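 note: controls were the assay level and a saturating level of protein; the project sought stronger binding though the title names inhibitors; some compounds called inactive have numbers as strong as hits; positive values seem to mean higher polarization but the record does not say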
Target sequence (P41235 whole entry, looked up): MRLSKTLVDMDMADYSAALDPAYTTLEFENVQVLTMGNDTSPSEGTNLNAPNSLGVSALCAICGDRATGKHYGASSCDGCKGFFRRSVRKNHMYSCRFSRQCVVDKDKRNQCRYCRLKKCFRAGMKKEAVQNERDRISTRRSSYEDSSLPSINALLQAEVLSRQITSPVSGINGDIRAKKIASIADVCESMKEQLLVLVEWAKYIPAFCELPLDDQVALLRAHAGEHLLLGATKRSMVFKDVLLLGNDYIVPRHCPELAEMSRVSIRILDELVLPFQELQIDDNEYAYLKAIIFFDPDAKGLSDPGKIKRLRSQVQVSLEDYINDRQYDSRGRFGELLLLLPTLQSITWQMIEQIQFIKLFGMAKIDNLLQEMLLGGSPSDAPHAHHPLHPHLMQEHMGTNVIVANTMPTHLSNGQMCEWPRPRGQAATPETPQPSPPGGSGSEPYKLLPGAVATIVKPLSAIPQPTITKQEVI
Vif A3G: HIV-1 Vif–A3G interaction blockers – biochemical, TR-FRET, GST-Vif 1-94, biotin-A3G peptide, dose response retest, primary screen (AID 1117319) | TR-FRET GST-Vif / biotin-A3G peptide binding; higher % means a stronger effect; test concentration not given here; strong numbers were not always called active | one-dose inhibition, %; IC50 in µM for titrated hits | 0.57% of 260,000 active;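 active = above the screen mean plus three standard deviations and confirmed in dose response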;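 note: Vif residues 1-94 fused to GST binding biotinylated APOBEC3G peptide 110-148; 0% = full assay without inhibitor and 100% = GST in place of GST-Vif; retest series ran down from 100 µM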
The depositor's hits bear a star. This is a subset. The share of hits here may be higher or lower than overall.

Screens in order – Vif A3G	HNF4A DNA FP
- COc1ccc(C=C2OC(=O)C(C(C)=O)=C2O)cc1
  4.7%	18.4
- COc1ccc(C)cc1-n1cnc2sc(C)c(C)c2c1=O
  -0.5%	3.8
- C[C@@H]1CN([C@H](C)CO)C(=O)CCCn2nncc2CO[C@H]1CN(C)C(=O)Nc1ccc2c(c1)OCO2
  -1.0%	3.6
- c1cc2c(c(CC3CO3)c1CC1CO1)OCCOCCOCCOCCO2 (stereo unspecified)
  1.6%	2.2
- O=[N+]([O-])c1cccc(C2Nc3ccccc3CO2)c1 (stereo unspecified)
  -0.1%	2.8
- COc1cc(C(=O)Nc2ccc(C(=O)c3ccncc3)cc2)cc(OC)c1OC
  -2.7%	3.3
- COC(=O)C[C@H]1C[C@H]2c3cc(NS(=O)(=O)c4cccc(OC)c4)ccc3O[C@H]2[C@@H](CO)O1
  -4.6%	-1.5
- C[C@H]1CN(CCc2ccccc2)C(=O)[C@@H]1CC(=O)Nc1ccc(Br)cc1
  0.1%	1.4
- NC(=O)C1CCN(C(=O)c2ccc3ncsc3c2)CC1
  0.7%	-3.7
- CCSCC(C)(C)n1[nH]c2ccccc2c1=O
  1.2%	3.3
- CCN1C(=O)C(=CC=CN(C)c2ccccc2)SC1=S
  -2.4%	176.5
- CCOc1ccc(Oc2ccccc2NC(=O)CCc2nc3ccccc3c(=O)[nH]2)cc1
  -0.4%	-2.8
- Cc1noc(C)c1S(=O)(=O)Nc1ccc2c(c1)C(=O)N([C@H](C)CO)C[C@H](C)[C@@H](CN(C)C(=O)CCCN(C)C)OCCCC[C@@H](C)O2
  -5.3%	0.8
- C#CCN(C[C@H]1[C@H](OC(=O)NCc2ccccc2F)[C@H](OC(=O)NCc2ccccc2F)C[C@@H](C(=O)OC)[C@H]1C(=O)OC)S(=O)(=O)c1ccc(C)cc1
  2.0%	-2.2
- O=C(NNC(=O)C1CCC1)c1ccc(F)cc1
  0.6%	-0.8
- O=C(/C=C/c1cccc(Cl)c1)OCC(=O)c1ccc[nH]1
  -2.9%	0.7
- O=C(NCCCn1cccn1)c1cc(COc2ccccc2)on1
  1.8%	3.3
- N#CC(=C1C=C(Br)C(=NO)C=C1Cl)c1cccc2ccccc12
  12.1%	8.5
- Cc1ccccc1-c1nc2ccccc2c(=O)o1
  3.2%	0.2
- S=C1SCN(Cc2cccs2)CN1Cc1cccs1
  -4.0%	3.0

Reformatted: 4 of the compounds above.
O=C(NNC(=O)C1CCC1)c1ccc(F)cc1
- Vif A3G = 0.6%
- HNF4A DNA FP = -0.8

O=C(/C=C/c1cccc(Cl)c1)OCC(=O)c1ccc[nH]1
- Vif A3G = -2.9%
- HNF4A DNA FP = 0.7

O=C(NCCCn1cccn1)c1cc(COc2ccccc2)on1
- Vif A3G = 1.8%
- HNF4A DNA FP = 3.3

N#CC(=C1C=C(Br)C(=NO)C=C1Cl)c1cccc2ccccc12
- Vif A3G = 12.1%
- HNF4A DNA FP = 8.5

Further records follow.
Screens in order – Vif A3G	HNF4A DNA FP
- CSc1cccc(CNC(=O)C2CCC(=O)N(CCc3ccccc3)C2)c1 (stereo unspecified)
  1.3%	5.1
- COCCN(C(=O)COC(=O)Cc1ccc(Cl)cc1)c1c(N)n(Cc2ccccc2)c(=O)[nH]c1=O
  -7.9%	-0.1
- COc1ccccc1NC(=O)COC(=O)c1ccc2c(=O)n3c(nc2c1)CCC3
  -33.2%	13.2
- Cc1ccc(N2CC(O)CSC2=Nc2ccccc2)cc1 (stereo unspecified)
  1.5%	-1.8
- C[C@H](O)CNC(=O)c1[nH]cnc1C(=O)Nc1ccc(CNC(=O)OC(C)(C)C)cc1
  -6.5%	-1.8
- C[C@@H]1CN([C@@H](C)CO)S(=O)(=O)c2ccc(-c3ccc(C(=O)N(C)C)cc3)cc2O[C@@H]1CN(C)Cc1ccccc1C(=O)O
  3.9%	2.1
- Cc1cc(=O)c2ccc(NC(=O)c3ccccc3)cc2[nH]1
  1.3%	1.1
- CC1CCCC(C)N1CCCNC(=O)C1CCCN(S(=O)(=O)N2CCCCC2)C1 (stereo unspecified)
  2.9%	-0.7
- C[C@@H]1CNC(=O)c2c(C(=O)NCC(=O)OC(C)(C)C)ncn21
  -0.2%	0.6
- O=C(NCCCN1CCCC1)c1ccc2c(c1)N(Cc1cccc(Cl)c1)C(=O)c1ccccc1S2(=O)=O
  -10.9%	2.3
- S=C1SC2(CCCCCC2)NC2=C1CCCCC2
  -5.0%	2.7
- C[C@@H]1CN([C@H](C)CO)C(=O)CCCn2cc(nn2)CO[C@H]1CN(C)C(=O)C1CC1
  0.6%	2.4
- O=C(O)c1c(Cl)c(Cl)c(Cl)c(Cl)c1C(=O)OCC1CCCO1 (stereo unspecified)
  1.2%	-3.7
- COc1cc(NCCCCC(C)N)c2nccc(C)c2c1 (stereo unspecified)
  9.3%	-5.5
- CC(=O)Nc1cccc(NC(=O)c2ccc(S(=O)(=O)NCc3ccco3)cc2)c1
  1.9%	3.7
- C#CCn1cc2c(c1-c1ccccc1)c(=O)n(C)c(=O)n2C
  1.4%	-7.3
- Nc1ccn([C@@H]2O[C@H](CNCc3cnc(N4CCOCC4)nc3)[C@@H](O)[C@H]2O)c(=O)n1
  -1.3%	4.5
- CCOC(=O)N(C)C[C@@H]1OCc2cnnn2CCCC(=O)N([C@@H](C)CO)C[C@@H]1C
  -7.7%	4.2
- Cc1ccc(NC(=O)CSCC(=O)N(C)CC(=O)Nc2c(C)cccc2C)cc1
  4.4%	5.2
- CCOc1ccccc1C(=O)NC(C(=O)OCC(=O)NNC(=O)c1cccs1)C(C)C (stereo unspecified)
  -2.7%	-1.1
- O=C(COc1ccc(S(=O)(=O)N2CCOCC2)cc1Cl)NCc1ccc2c(c1)OCO2
  -2.7%	-4.8
- CCCN(CC(=O)Nc1ccccc1C)C(=O)C1CCN(S(=O)(=O)c2ccc(C)c(C)c2)CC1
  -0.6%	-2.3
- O=C1[C@H]2[C@@H](c3ccc(C(F)(F)F)cc3)N[C@]3(CCCN(Cc4ccccc4)C3=O)[C@H]2C(=O)N1Cc1ccccc1
  -0.7%	5.4
- COc1ccc(S(=O)(=O)N2CCC(C(=O)N[C@@H](C)C(=O)NCc3cccnc3)CC2)cc1
  -8.2%	0.5
- COc1ncnc2c1ncn2CCCN1CCN(c2ncccn2)CC1
  -7.2%	-1.4
- O=C(COC(=O)/C=C/c1ccc2ccccc2n1)NNC(=O)c1ccccc1
  -8.0%	6.9
- Cc1ccc2nc3n(c(=O)c2c1)-c1cc2ccccc2cc1C(=O)NC3Cc1ccccc1 (stereo unspecified)
  -12.6%	-0.7
- Cc1ccc(CN2CCC[C@]3(N[C@H](c4ccc(C(F)(F)F)cc4)[C@@H]4C(=O)N(C)C(=O)[C@@H]43)C2=O)cc1
  -0.3%	-2.6
- CN(Cc1ccc(Cl)cc1Cl)C(=O)Cc1ccc(S(=O)(=O)N2CCOCC2)s1
  -2.4%	4.7
- Cc1nc(NC(=O)C(C)(C)C)sc1-c1csc(N)n1
  -6.8%	0.5
- O=C(COC(=O)c1ccc(S(=O)(=O)N2CCCCC2)cc1)NC1CCCCC1
  17.2%	0.8
- C[C@@H]1CN([C@@H](C)CO)C(=O)c2cc(Br)cnc2O[C@H]1CN(C)Cc1ccccc1C(=O)O
  -0.6%	-5.4
- C[C@H]1CN([C@@H](C)CO)C(=O)CCCn2cc(nn2)CO[C@@H]1CN(C)S(=O)(=O)c1cccc(F)c1
  -2.5%	-0.6
- O=C(Nc1oc2ccccc2c(=O)c1-c1ccccc1)c1ccco1
  1.8%	1.0
- O=C(NC(=S)Nc1cccc(O)c1)C12CC3CC(CC(C3)C1)C2
  -4.0%	1.2
- CCN(CC)C(=O)C1=C(C)N(Cc2ccccc2)C(=O)C(CC(=O)NCc2cccc3ccccc23)C1 (stereo unspecified)
  -0.6%	-4.3
- CC1(c2ccc(Cl)cc2)NC(=O)N(CC(=O)N2CCN(C(=O)c3cccs3)CC2)C1=O (stereo unspecified)
  -6.5%	-6.5
- CCCN(CC(=O)Nc1ccccc1C)C(=O)c1cc2ccccc2oc1=O
  -2.5%	0.9
- O=C(NC1CC1)c1ccccc1
  0.8%	-2.0
- CN(Cc1ccccc1)C(=O)c1[nH]cnc1C(=O)Nc1ccccc1F
  -4.2%	5.4
- COc1ccc(NC(=O)C[C@H]2C(=O)N(c3ccccc3)C[C@@H]2C)cc1
  3.4%	2.1
- CC(=O)N1CCc2c(sc(NC(=O)c3ccc([N+](=O)[O-])o3)c2C(N)=O)C1
  0.2%	3.4
- CCOC(=O)C1C(C(=O)OCC)C(C)(C)C1N(C)C (stereo unspecified)
  2.9%	-3.1
- O=C(NCC(c1ccco1)N1CCCC1)c1cccc(S(=O)(=O)N2CCCCC2)c1 (stereo unspecified)
  34.4%	-0.4
- C[C@H]1CN([C@@H](C)CO)C(=O)CCCn2cc(nn2)CO[C@@H]1CN(C)C(=O)Nc1ccc(N2CCN(C)CC2)cc1
  -4.0%	-0.7
- Cc1cc(C2=CC(=O)C[C@H](c3ccc(F)cc3)C2)ccc1F
  -1.4%	-1.9
- O=C(Nc1ccn(CCCNCC2CCCCC2)c(=O)n1)OCc1ccccc1
  -3.5%	-7.9
- COc1cccc(CN(C)C[C@@H]2OCc3cnnn3CCCC(=O)N([C@H](C)CO)C[C@H]2C)c1
  0.8%	-1.1
- CC(C)OC(=O)N(C)C[C@@H]1OCc2cnnn2CCCC(=O)N([C@H](C)CO)C[C@H]1C
  9.3%	-1.8
- COc1ccc([C@H]2C[C@H](O)[C@@H](n3cc(COC(=O)c4ccccc4)nn3)CN2C(=O)C2CCCCC2)cc1
  -0.2%	0.4
- CCOC(=O)C1C(=O)CC(=O)C(C(=O)OCC)C1c1ccc(O)cc1 (stereo unspecified)
  -0.3%	0.6
- O=C1CC(=O)Nc2ccccc2N1
  0.1%	3.1
- O=C1C(=C(c2ccccc2)N2CCOCC2)Cc2ccccc21
  3.1%	-3.8
- CCCCCCNC(=O)O[C@H]1CN(C(=O)OC(C)C)N(C(=O)OC(C)C)[C@@H]2CN(S(=O)(=O)c3ccc(C)cc3)C[C@]12O
  -7.8%	-0.9
- COc1cccc(/C=C/C(=O)OCC(=O)N2c3ccccc3CC2C)c1 (stereo unspecified)
  -6.5%	-1.8
- CCCCCCN1C[C@H](n2cc(COC(=O)c3ccccc3)nn2)[C@@H](O)C[C@@H]1c1ccccc1
  1.3%	-8.5
- O=C(NCCOc1ccccc1)c1cccc(S(=O)(=O)N2CCN(Cc3ccccc3)CC2)c1
  3.2%	0.5
- CC(=O)c1ccc(S(=O)(=O)Nc2ccc(C(=O)NCC(c3ccco3)N3CCCC3)cc2)cc1 (stereo unspecified)
  -4.5%	-4.7
- COc1ccc(NC(=O)CCNC(=O)N2CC(=O)Nc3ccccc32)cc1OC
  8.4%	3.4
- CC(C)CC1C(=O)N(Cc2cn(CCC3OCCO3)nn2)CCS(=O)(=O)N1Cc1ccc(-c2ccncc2)cc1 (stereo unspecified)
  -2.3%	-1.4

(continued)
Screens in order – Vif A3G	HNF4A DNA FP
- COCCCN1C(=O)C(CC(=O)NC2CCCCC2)CC(C(=O)N(C)C)=C1C (stereo unspecified)
  3.1%	0.3
- COCCN(C(=O)COC(=O)CSc1cc(C)ccc1C)c1c(N)n(Cc2ccccc2)c(=O)[nH]c1=O
  -5.5%	2.4
- Cc1ccccc1NC(=O)COC(=O)c1ccc(C)c(S(=O)(=O)N2CCCCC2)c1
  -0.8%	-3.6
- Cc1noc(C)c1C(=O)N(C)C[C@@H]1OCc2ccccc2-c2c(n(C)c3ccccc23)C(=O)N([C@H](C)CO)C[C@H]1C
  -7.9%	-0.6
- Cn1nc(N)c2ncc(-c3ccc(Cl)cc3)nc21
  12.3%	2.9
- C[C@@H]1CN([C@H](C)CO)C(=O)CCCn2nncc2CO[C@@H]1CN(C)C(=O)OCc1ccccc1
  -2.9%	-7.5
- O=C(OCc1cn([C@H]2CN(Cc3cccs3)[C@@H](c3ccccc3)C[C@@H]2O)nn1)c1ccccc1
  2.6%	-3.9
- CCOC(=O)c1c(C)nc(C)c(C(=O)OCC)c1-c1cccc([N+](=O)[O-])c1
  -0.1%	-2.8
- CCc1ccc(/C=C2\SC(=S)N(CCCC(=O)NCCCN3CCOCC3)C2=O)cc1
  12.7%	0.5
- C#CCN(C[C@@H]1[C@@H](OC(=O)NCc2ccco2)[C@@H](OC(=O)NCc2ccco2)CN(C(=O)OC(C)C)N1C(=O)OC(C)C)S(=O)(=O)c1ccc(C)cc1
  -1.1%	-2.2
- CCCCN1C(=O)C(CC(=O)NCCN2CCOCC2)CC(C(=O)N(C)C)=C1C (stereo unspecified)
  0.4%	0.2
- COc1ccc(C(C#N)CC(=O)c2ccc(OC)c(OCc3ccccc3)c2)cc1OC (stereo unspecified)
  -12.6%	2.8
- O=C(O)C1=C(C(=O)O)C2CCC1C2
  15.1%	-2.4
- O=C1CC[C@@H](C(=O)N2CSC[C@@H]2C(=O)Nc2cccc(C(F)(F)F)c2)N1
  3.1%	6.2
- NC(=O)c1csc(CCNC(=O)c2ccccc2)n1
  0.9%	1.3
- O=S(=O)(N=C1C=CC(=NS(=O)(=O)c2ccccc2)c2ccccc21)c1ccccc1
  14.1%	2.1
- COc1ccc(CN2CCC[C@]3(N[C@H](c4ccc(OC)cc4)[C@@H]4C(=O)N(C)C(=O)[C@@H]43)C2=O)cc1
  3.3%	-3.0
- O=C(CSc1ncccn1)NC1CCCC1
  -0.2%	0.6
- COc1ccc(CN2CCC[C@]3(N[C@H](c4ccccc4)[C@@H]4C(=O)N(Cc5ccccc5)C(=O)[C@@H]43)C2=O)cc1
  -9.3%	-0.7
